# Source: PubChem
# SmPrx2 inh: inhibitors of Schistosoma mansoni peroxiredoxin 2; AID 448; 65,000 tested, 0.07% active; S. mansoni Prx2 activity coupled to TGR/GSH (TGR is thioredoxin glutathione reductase), NADPH fluorescence loss, qHTS; some inactives read as strong as hits; Potency, µM; active means full or partial inhibition curve with a strong effect at the top dose; inconclusive means weaker partial or single-point curve; inactive means no accepted curve; also: series up to 57 µM; many of its hits are not listed in these tables
#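 qHTS, coupled TGR/Prx2 format; 15 min compound preincubation at RT; reaction started with H2O2 (2.5 mM aliquot); kinetic NADPH fluorescence decrease, ex 365/em 450 nm.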
# Anthrax LT inh: anthrax lethal toxin internalization inhibition. Cells, anthrax lethal toxin internalization, FRET ratio (460/530). Potency, µM (series often up to 40 µM), inactives show top-dose activity change, negative = inhibition, most hits filed as inhibitors. 70,000 tested, 0.67% active; active = well fitted falling ratio curve with the 530 nm signal flat; inconclusive = other ratio curves, or a change in one channel alone; inactive = flat curves in the ratio and both channels; the % refers to the ratio; also: % is scaled to controls: 0 for no effect and ±100 for the full control effect; nearly all actives have a fitted effect of over 50% in size; tested in ME-180 cells; beta-lactamase reporter
# * marks the source's active call; other numbers are inactive results; ? = inconclusive; . = not tested or not shown; & = joins results of further samples; [ ] = dose if it differs, or a comment. Potency is read from the fitted curve at half-maximal effect.
SMILES | SmPrx2 inh | Anthrax LT inh
COc1ccc(N2C(=O)C3CCCN3C2c2cccc(OC)c2)cc1 (centres undefined) | >57 | 6.0%
O=C(CSc1nnc2scc(-c3ccc(F)cc3)n12)NCc1ccco1 | >57 | -12.5%
CC(=O)Nc1cccc(-c2nc3ccccc3c(=O)o2)c1 | >57 | 11.4%
COc1ccc(OC)c(NC(=O)Cc2nn(C)c(=O)c3ccccc23)c1 | >57 | 3.7%
CCOC(=O)c1[nH]c(C)c(C(=O)NCc2ccc(C)cc2)c1C | >57 | 5.8%
NC(=O)CN1CCCC1=O | >57&>57 | 12.2%[3.58 µM]
CC(C)(C=O)Cc1cc(C(C)(C)C)c(O)c(C(C)(C)C)c1 | >25.6&>57 | ?
CCCC[C@@H]1C[C@H]1C(NC(=O)c1ccccc1)c1ccc(C(F)(F)F)cc1 (some centres undefined) | >57 | ?
COC(=O)c1ccc(Oc2nc(C)cc(Oc3ccccc3)n2)cc1 | >57 | -4.9%
CCOC(=O)c1cnc2c(C(=O)OC)cccc2c1NCCN1CCOCC1 | >57 | 4.7%
CCC(C)N(CCNC(=O)CC1Oc2ccc(C)cc2NC1=O)C1CCCCC1 (centres undefined) | >57 | ?
CCNc1ncc2nc(-c3cccc(C#N)c3)c(=O)n(Cc3cccc(OC)c3)c2n1 | >57 | ?
COc1ccc(C(=O)CSc2nnc(-c3ccco3)n2C)cc1 | >57 | 0.9%
O=C(c1ccc(CNc2c(N3CCOCC3)c(=O)c2=O)cc1)N1CC=C(c2ccccc2)CC1 | >57 | -5.1%
CCCCOCC(O)CN1CCN(C(C)=O)CC1 (centres undefined) | >57 | -5.2%
Cc1ccc(N2C(=O)CC(=O)NC2=O)cc1 | >57 | -16.8%
COc1ccc(Nc2nc(C)cc(C)c2C#N)cc1 | . | -7.0%
CC(=O)NCCNc1nc(-c2cccc(NS(C)(=O)=O)c2)nc2ccccc12 | >57 | 7.4%
CCCC(=O)OCCNC(=O)c1cc2ccccc2oc1=O | . | -10.3%
COc1ccccc1CNc1cc(-c2ccoc2)ncn1 | >57 | 5.1%
Cn1c(C(=O)N2CCCC(C(=O)NCCc3ccccc3)C2)cc2sccc21 (centres undefined) | >57 | -9.2%
Cc1ccc2nc(NC(=O)CN3CCOCC3)sc2c1 | >57 | -2.1%
Cc1cc(C)c(NC(=O)c2cc3c(nc4sccn43)s2)c(C)c1 | >57 | -27.9%
Cc1c(NC(=O)N2CCCCCC2)c(=O)n(-c2ccccc2)n1C | >57 | 4.9%
Cc1ccc(SCc2cc(=O)[nH]c(N3CCN(Cc4ccc5c(c4)OCO5)CC3)n2)cc1 | >57 | 3.8%
CCOc1ccc(NS(=O)(=O)c2ccc(SC)cc2)cc1 | >57 | -8.3%
CC(=O)NC(Cc1c[nH]c2ccccc12)C(=O)OCC(=O)Nc1ccc2c(c1)OCO2 (centres undefined) | ? | -0.3%
CCn1c(SCC(=O)c2ccccc2)nnc1-c1cc2cc(Br)ccc2o1 | >57 | -14.5%
Cc1cccc(N(C2C=CS(=O)(=O)C2)S(=O)(=O)c2ccccc2)c1 (centres undefined) | >57 | -2.5%
CCc1ccc(O)c(N=Cc2ccccc2O)c1 | . | 15.4%

# Shown field by field: entries from further up
> CC(=O)NC(Cc1c[nH]c2ccccc12)C(=O)OCC(=O)Nc1ccc2c(c1)OCO2 (centres undefined)
- SmPrx2 inh: ?
- Anthrax LT inh: -0.3%
> CCn1c(SCC(=O)c2ccccc2)nnc1-c1cc2cc(Br)ccc2o1
- SmPrx2 inh: >57
- Anthrax LT inh: -14.5%

# Other results.
SMILES | SmPrx2 inh | Anthrax LT inh
Cc1nc(N2CCOCC2)c2oc3ccccc3c2n1 | >57 | -1.6%
CN1CCN(C(=O)C2C3C=CC(C3)C2C(=O)O)CC1 (centres undefined) | >57 | -2.7%
COCC(=O)Nc1nnc(C2CCCCC2)s1 | >57 | 2.4%
CC12CN3CC(C)(CN(C1)C3c1ccc3ccccc3c1O)C2=O (centres undefined) | >57 | -22.1%
Cc1ccc(-c2nnn(CC(=O)N(Cc3ccccc3)C(C(=O)NC3CCCC3)c3ccncc3)n2)o1 (centres undefined) | >57 | 10.6%
Cc1ccc(Cn2ccc(NC(=O)c3cc(-c4ccc(F)cc4)on3)n2)cc1 | >57 | -5.8%
CCNc1nc(Oc2ccc(=O)n(-c3ccccc3)n2)nc(N2CCOCC2)n1 | >57 | 3.4%
COc1ccc(OC)c(C2=C[N+](=O)C(C)(C)C(C)(C)N2[O-])c1 | >57 | -9.2%
Cc1noc(C)c1S(=O)(=O)Nc1c(C)n(C)n(-c2ccccc2)c1=O | >57 | -1.3%
c1ccc2c(CN3CCN(C4CCCCC4)CC3)c[nH]c2c1 | >57 | 14.7%
OC(COc1cccc2ccccc12)CN1CCN(c2ccccn2)CC1 (centres undefined) | >57 | 1.3%
COc1ccc(C(=O)N(CN2CCCC2=O)c2nccs2)cc1OC | >57 | 7.0%
CC(c1ccccc1)N1CNc2c(c(=O)n(C)c(=O)n2C)C1 (centres undefined) | . | -8.4%
C=CCn1c(=O)c2ccccc2n2c(SCc3cc(=O)n4ccsc4n3)nnc12 | >57 | 4.1%
COc1ccc(-c2noc(-c3ccc(Br)o3)n2)cc1OC | >57 | ?
O=C1c2ccccc2C(=O)N1CCc1nn[nH]n1 | >57 | 4.1%
Cc1ccc(C(CC(=O)O)Nc2nc(N3CCCCC3)nc(N3CCCCC3)n2)cc1 (centres undefined) | >57 | 4.4%
CCSc1ncc(Cl)c(C(=O)N(Cc2ccc(N(C)C)cc2)C2CCS(=O)(=O)C2)n1 (centres undefined) | >57 | 0.4%
O=C(c1cc(-c2cccc(O)c2)on1)N1CCOCC1 | >57 | -0.4%
Cc1[nH]n(-c2ccc(S(=O)(=O)O)cc2)c(=O)c1N=Nc1ccccc1 | >57 | -11.8%[8 µM]
Cc1cc(-c2nn3c(C)nnc3s2)ccc1NC(=O)C(C)(C)C | >57 | -3.6%
O=C(O)c1cccnc1SC1CC(=O)N(c2cccc(C(F)(F)F)c2)C1=O (centres undefined) | >57 | -7.6%
CCOc1ccc(-n2c(SCC(=O)Nc3cc(C)on3)nc3c([nH]c4ccccc43)c2=O)cc1 | >57 | -13.0%
COc1ccccc1N1CCN(c2nc3ccccc3n3nnnc23)CC1 | >57 | 3.7%
O=C(COc1ccc(C(=S)N2CCOCC2)cc1)N1CCCC1 | >57 | 1.4%
COc1ccc(N2CC(C)Cn3c2nc2c3c(=O)[nH]c(=O)n2C)cc1 (centres undefined) | >57 | 7.1%
Cn1c(Cn2c(=O)sc3ccccc32)nnc1SCC(=O)Nc1ccccc1 | >57 | 1.2%
Brc1cnc(N2CCOCC2)nc1N1CCCCC1 | >57 | -19.5%
CC(=O)N1c2c(cc(Br)cc2S(=O)(=O)NCc2cccnc2)CC1C (centres undefined) | >57 | -5.9%
CCC(c1nnnn1CCc1ccccc1)N(Cc1ccco1)Cc1cc2cc(C)cc(C)c2[nH]c1=O (centres undefined) | >57 | 7.2%
CCn1c(=O)cc(OCC(=O)Nc2cccnc2)c2ccccc21 | >57 | 6.4%
CC(C)c1ccc(C2CC(=O)N3CN(Cc4ccco4)CSC3=C2C#N)cc1 (centres undefined) | >57 | -25.3%
COc1ccc(-c2nnc(SCC(=O)N3CCCC(C)C3)o2)c(OC)c1 (centres undefined) | >57 | -7.9%
CCn1c(SCC(=O)c2c(N)n(C)c(=O)n(C)c2=O)nc2sc(C)c(C)c2c1=O | >57 | ?
C=CCCCCCC | . | -3.1%
CCOC(=O)N1CCN(C(=O)CSc2ccc(Cl)cc2)CC1 | >57 | 3.8%
C[C@@]12CC[C@@H]3[C@H](CCC4=CC(=O)CC[C@]43C)[C@@H]1CC[C@@H]2C(=O)Cn1cnc2c(=S)nc[nH]c21 | >57 | -15.8%[8 µM]
COc1ccccc1N1CCN(CCn2c(=O)[nH]c3c([nH]c4ccccc43)c2=O)CC1 | >57 | -12.9%
COC(=O)c1c(NC(=O)c2ccco2)sc(C(=O)Nc2ccc(F)cc2)c1C | >57 | -15.2%
Cc1cc(NC(=O)CCCC(=O)Nc2ccc(F)cc2)no1 | >57 | ?
CCOc1ccccc1CNS(=O)(=O)c1ccc2c(c1)oc(=O)n2C | >57 | -13.3%
O=C1NC(c2ccccn2)Nc2sc3c(c21)CCC3 (centres undefined) | >57 | -13.6%
Cc1cc(=O)n2c3c(cccc13)CCC2 | >57 | -2.5%
O=C(CCN1CC2CCC(CC2)C1)c1cccs1 | >57 | ?
CCCC(=O)Nc1ccc(-c2nc3cc(C)c(C)cc3o2)c(O)c1 | >57 | -5.3%
COC(=O)c1ccc2c(=O)[nH]c(CN3c4ccccc4CC3C)nc2c1 (centres undefined) | >57 | 2.3%
COC(=O)c1cc(-c2ccccc2)n(CC(=O)O)c1C | >57 | -1.9%
O=C(OCC(=O)N1CCN(C(=O)COC(=O)c2ccncc2)CC1)c1ccncc1 | >57 | 3.9%
Cc1csc(SCC(=O)NCc2cccs2)n1 | >57 | -2.9%
CC1CCN(c2nc3c(c(=O)n(C)c(=O)n3C)n2CCSc2nc3ccccc3o2)CC1 | >57 | -10.7%
NC(=O)CN1CCN(C(=O)NC2CCCCC2)CC1 | >57 | -2.1%
Cn1cnnc1SC(C(=O)c1ccccc1)c1ccccc1 (centres undefined) | >57 | -0.6%
c1ccc(C(c2ccccc2)N2CCC3(CCNCC3)CC2)cc1 | >57 | 1.7%
CCOC(=O)Cc1csc(SCC(=O)N2CCN(c3ccc(OC)cc3)CC2)n1 | >57 | ?
Cc1oc2cc3c(C(=O)N4CCN(C)CC4)c(C)oc3cc2c1C(=O)N1CCN(C)CC1 | >57 | -6.2%
CCN(CC)C(=O)N1CCN(C)CC1 | >57 | 4.6%[3.58 µM]
COc1cc2nncc(SCc3ccc(Cl)c(Cl)c3)c2cc1OC | >57 | -2.4%[8 µM]
O=C(O)CC[N+](=O)[O-] | >57 | 9.4%
Nc1nc(NC(=O)c2cccc(S(=O)(=O)N3CCCCCC3)c2)nc(-c2ccccc2)n1 | >57 | ?
Cc1cccc(-n2ccnc2SCC(=O)Nc2cc(C)on2)c1 | >57 | -8.6%

# Next section
SMILES | SmPrx2 inh | Anthrax LT inh
O=C1C2=C(SCCS2)C(=O)N1CCCO | . | -7.1%
CCCOc1c(OC)cccc1C1CC(=O)Nc2cc3c(cc21)OCO3 (centres undefined) | >57 | -14.0%
Cc1ccc(C(=O)N2CCN(c3cccc(Cl)c3)CC2)cc1C | . | ?
COc1ccc(NC(=O)CNS(=O)(=O)c2cccs2)cc1 | >57 | 5.6%
CCOC(=O)c1[nH]c2ccccc2c1NC(=O)c1ccco1 | >57 | 8.2%
CCc1cc2c(SCC(=O)C(C#N)=C3N(C)c4ccccc4N3C)ncnc2s1 | >57 | -7.8%
CCN(C1CCCCC1)S(=O)(=O)c1cn(C)c(=O)n(C)c1=O | >57 | 9.8%
Cc1cccc(CNc2cc(-c3cccc(NS(C)(=O)=O)c3)ncn2)c1 | >57 | -21.6%
COc1ccc(N2CCN(c3ncnc4nc[nH]c34)CC2)cc1 | >57 | 7.7%
CCOc1ccc(NC(=O)CSc2nnc(-c3ccco3)n2C)cc1 | >57 | -3.9%
COc1ncc2nc(-c3cc(F)cc(F)c3)c(=O)n(C)c2n1 | >57 | 1.7%
COc1ccc(-n2c(C)nc3cc(C(=O)NCc4ccco4)ccc32)cc1 | >57 | -11.4%
CC(=O)c1ccc(NC(=O)c2ccn[nH]2)cc1 | >57 | 5.6%
C=CCn1cc(C(=O)NCC2CCCO2)c(=O)c2cc(S(=O)(=O)N3CCCCCC3)ccc21 (centres undefined) | >57 | .
O=C(Nc1ccccc1C(=O)O)c1cccc(NC(=O)c2ccc(Br)o2)c1 | >57 | ?
COc1ccc2nc(NC(=O)CSc3nnc(-c4ccoc4C)n3C)sc2c1 | >57 | -13.3%
Cc1c(O)c(Br)c(C)c(O)c1Br (tested in a mixture with another compound) | . | ?
O=C(Nc1ccc(NC(=O)c2cccs2)cn1)c1ccco1 | >57 | ?
O=[n+]1cc(-c2ccc(F)cc2)n([O-])c2c1CCC2 | >57 | -9.6%
Cc1noc(C)c1C(=O)OCC(=O)c1cc(C)n(Cc2ccccc2Cl)c1C | >57 | ?
Cc1ccc(S(=O)(=O)Nc2ccc3ncccc3c2)cc1 | . | 15.8%
CN(C)Cc1ccccc1-c1nc(NCc2ccccc2)c2ccccc2n1 | >57 | -23.3%
Cn1c(=O)c(NCCO)c2c3c(cccc31)C(=O)c1ccccc1-2 | >57 | -1.1%
COCCn1c(SCC(=O)Nc2ncc(C)s2)nc2sc3c(c2c1=O)CCC3 | >57 | ?
COC(=O)CCc1c(C)nn(-c2ccccc2)c1C | >57 | -16.4%
Cc1cc(CNC(=O)[C@H]2C[C@@H]2[C@H](NP(=O)(c2ccccc2)c2ccccc2)c2ccccc2)nn1C | >57 | 0.6%
CCc1[nH]nc2c1C(C(C)C)C(C#N)=C(N)O2 (centres undefined) | >57 | 23.3%
CN(C(=O)C1CCCO1)c1nnc(-c2cnccn2)s1 (centres undefined) | >57 | 7.1%
O=C(Nc1ccc(Cl)cc1)NC1CCCC1Cc1ccco1 (centres undefined) | >57 | ?
O=c1c2[nH]c3ccc(F)cc3c2ncn1C1CCCCC1 | >57 | -10.0%

# Only part of the results is shown. The share of hits here may be higher or lower than overall.
